gsp ag – activates gsp, the McCune-Albright syndrome mutation; gsp mutant cells, cAMP HTRF, 30 min; control for the full effect not named in the record; Potency, µM (titrated, usually from 76.9 µM), for inactives: at the highest dose activation (cAMP increase), most hits filed as activators; AID 624287; 340,000 tested, 0.13% active; active = well fitted activation curve with a large enough effect; inconclusive = small, poorly fitted or top-dose-only effect, or another doubt; inactive = no such curve, though single readings can be large or run the other way; cell line not stated here;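 also: phosphodiesterase inhibitor Ro 20-1724 added with compounds to block cAMP breakdown; potency is read from the fitted curve at half-maximal effect; nearly all actives have a fitted effect of over 60% in size; about a fifth of the inactives were tested at one dose only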
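Cells in DMEM/10% FBS with G418 were pretreated with compounds in DMSO plus […] (300 uM stock) for 30 min at 37C. cAMP was measured by HTRF (cAMP-d2 plus anti-cAMP antibody-K) after 30 min at room temperature.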
D2 PAM – positive allosteric modulators of human D2 dopamine receptor | DiscoveRx D2 beta-arrestin cells, luminescence, 90 min; 100% = 57 uM dopamine signal | potentiation, % (no concentration beside the values) | 360,000 tested, 0.23% active; active = potentiation of 50% or more; inconclusive = 30% to 50%; inactive = 30% or less;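 also: compound concentration not given in the record; tested on top of an EC20 dose of dopamine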
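PathHunter beta-arrestin assay in DiscoveRx D2 cells. Compounds were added with an EC20 of dopamine (50 nM final) for 90 min at 37 deg C. Luminescence was read 1 h after detection reagent, with 57 uM dopamine as the EC100 control.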
Menin-MLL FL inh – inhibitors of human menin-MLL interaction, wild-type MLL peptide | Fluorescence polarization, fluorescein-MLL peptide displacement from menin | FP activity change, % at 61.4 µM | 290,000 tested, under 10 active | AID 1766; inconclusive = falling polarisation curve, or a change in total fluorescence; inactive = total fluorescence flat and polarisation flat or rising; no compound was filed as active; the % refers to the polarisation; negative = inhibition;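 also: % of control where 0% means no effect; inhibitors lower the polarisation; unlabelled MLL peptide was the positive control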
Sfp inh – Sfp phosphopantetheinyl transferase inhibition; Q9F4F7; Biochemical Sfp PPTase activity, qHTS; Potency, µM, without a hit: max response, negative = inhibition, hits mostly inhibitors; 310,000 tested, 3.5% active; active = well fitted inhibition curve with a large enough effect; inconclusive = small, poorly fitted or top-dose-only effect, or another doubt; inactive = no such curve, though single readings can be large or run the other way;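 also: the enzyme is Sfp with the accession as filed and its product quenches rhodamine fluorescence; potency is read from the fitted curve at half-maximal effect; 0% = enzyme reaction without inhibitor and -100% = no enzyme wells; top concentration of the series not given in the record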
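Reaction rates are the 30-min fluorescence difference (ex 525, em 598 nm) in wells containing 15 nM Sfp, 5 uM rhodamine-CoA and 12.5 uM BHQ-2-YbbR at pH 7.6 with 10 mM MgCl2.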
TRPV1 PAM – enhances activation of the human vanilloid receptor TRPV1. potentiation, % at 8.33 µM. TRPV1-expressing cells, Fluo-8 calcium influx, capsaicin EC20 potentiation; host cell line not named in the record; control for the full effect not named in the record. 320,000 tested, 0.02% active. AID 540277. Q8NER1; active means potentiation above 80%; inconclusive means 30% to 80%; inactive means below 30%; also: 0% is about no effect
Target sequence (Q8NER1 whole entry, looked up): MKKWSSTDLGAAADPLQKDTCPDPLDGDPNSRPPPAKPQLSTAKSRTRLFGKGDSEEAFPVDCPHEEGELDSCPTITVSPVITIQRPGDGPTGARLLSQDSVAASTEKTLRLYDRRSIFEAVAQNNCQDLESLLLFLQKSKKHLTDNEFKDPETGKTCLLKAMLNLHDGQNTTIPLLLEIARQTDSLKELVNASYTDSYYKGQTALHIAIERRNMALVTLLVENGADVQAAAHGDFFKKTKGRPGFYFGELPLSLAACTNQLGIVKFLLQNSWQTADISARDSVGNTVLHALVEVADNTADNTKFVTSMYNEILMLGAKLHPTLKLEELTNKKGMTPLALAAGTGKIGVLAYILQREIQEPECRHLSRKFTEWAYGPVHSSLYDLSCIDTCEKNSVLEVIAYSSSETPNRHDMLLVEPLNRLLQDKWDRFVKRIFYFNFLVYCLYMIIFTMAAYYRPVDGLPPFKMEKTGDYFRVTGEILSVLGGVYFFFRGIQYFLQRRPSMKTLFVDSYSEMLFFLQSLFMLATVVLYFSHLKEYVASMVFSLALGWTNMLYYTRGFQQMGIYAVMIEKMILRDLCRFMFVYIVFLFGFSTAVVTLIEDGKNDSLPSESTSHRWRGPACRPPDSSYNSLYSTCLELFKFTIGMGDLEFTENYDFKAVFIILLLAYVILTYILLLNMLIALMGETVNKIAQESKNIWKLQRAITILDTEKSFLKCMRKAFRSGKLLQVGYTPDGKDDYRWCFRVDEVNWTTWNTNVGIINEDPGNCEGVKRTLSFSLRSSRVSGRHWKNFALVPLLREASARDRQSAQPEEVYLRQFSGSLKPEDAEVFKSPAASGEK
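Cells expressing TRPV1 were dye-loaded with Fluo-8 and read kinetically: 10 s baseline, 3 min after compound (agonist portion), then 2 min after EC20 capsaicin (allosteric enhancer portion). Calcium-bound dye fluorescence at 480/520 nm.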
gsp antagonist – antagonists of gsp mutant (McCune-Albright syndrome). gsp-mutant cells, cAMP HTRF, 30 min; control for the full effect not named in the record. Potency, µM (series often up to 76.9 µM), inactives show at the highest dose activity change, negative = inhibition, usual class: inhibitors. 340,000 tested, 0.4% active. AID 624288; active = falling curve of any shape with a large fitted effect; inconclusive = falling curve, mostly with a smaller effect; inactive = flat or rising curve; cell line not stated here;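 also: intracellular cAMP measured with PDE inhibitor Ro 20-1724 present during compound exposure; potency is read from the fitted curve at half-maximal effect; % is scaled to controls: 0 for no effect and ±100 for the full control effect; nearly all actives have a fitted effect of over 65% in size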
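Cells, 2000/well, grown 16–24 h in DMEM 10% FBS with 0.5 mg/ml G418, then compounds plus […] (300 uM addition stock), 30 min at 37C. cAMP read by HTRF (cAMP-d2 and anti-cAMP antibody-K in lysis buffer) after 30 min RT.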
ClpP mod – qHTS Assay for Activators of ClpP; ATP-dependent Clp protease proteolytic subunit (Bacillus subtilis (strain 168)), P80244; purified B. subtilis ClpP, FRET peptide cleavage, 20 min; Potency, µM (titrated, usually from 57.5 µM), inactives show top-dose activity change, negative = active; 340,000 tested, 1.9% active; AID 651965, 2013; active = well fitted falling curve with a large enough effect; inconclusive = small, poorly fitted or top-dose-only effect; inactive = no such curve, though single readings can be large or run the other way; also: potency is read from the fitted curve at half-maximal effect; the source files actives as falling curves though it sought activators and does not explain the sign; nearly all actives have a fitted effect of over 65% in size; many hits overshoot -100%
Target sequence (P80244 whole entry, looked up): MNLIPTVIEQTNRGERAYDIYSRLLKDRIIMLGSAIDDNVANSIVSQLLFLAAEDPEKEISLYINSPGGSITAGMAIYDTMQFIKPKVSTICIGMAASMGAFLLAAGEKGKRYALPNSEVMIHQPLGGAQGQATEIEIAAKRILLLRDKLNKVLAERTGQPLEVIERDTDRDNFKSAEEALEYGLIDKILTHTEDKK
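FRET quenching reversal measured ClpP activation: 10 microg/mL B. subtilis ClpP at pH 8 with the FRET-FV decapeptide, read at 430 nm after 320 nm excitation. The 20-min minus 0-min signal was scaled between DMSO/no-enzyme wells and ADEP (5.8 microM final).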
Starred values were filed as active, the others as inactive; ? = inconclusive; · = not tested or not shown; & = joins results of further samples; [ ] = another dose, or the depositor's remark.

SMILES	gsp ag	D2 PAM	Menin-MLL FL inh	Sfp inh	TRPV1 PAM	gsp antagonist	ClpP mod
CN1CCN(C(=O)CN(C)S(=O)(=O)c2ccc3ccccc3c2)CC1	-5%[15.4 µM]	-12	2.9	19%	4	9%	·
Cc1nnc(NC(=O)CSc2nnc3scc(-c4ccc(C)c(C)c4)n23)s1	-19%	3	3.9	-22%	0	-1%	244%
CC(=O)Nc1nc(CC(C)C)cc2c1c(=O)oc1ccccc12	-1%	4	1.9	19%	-2	20%	-14%
CCc1nn(CC(=O)NC(C)CCc2ccccc2)c(=O)c2cc3occc3n12 (stereo not given)	15%	-10	·	17%	4	1%	-1.8%
O=C(N[C@H](C(=O)O)c1ccccc1)C1CCC(Cn2nnc3ccccc3c2=O)CC1 (stereo not given in full)	·	·	-1.8	-3%	-3	·	·
Cc1oc(-c2ccccc2Cl)[n+]([O-])c1C	24%	12	-2.2	4%	15	0%	-1.3%
Cc1[nH]c(=S)c(C#N)c(C)c1Cc1ccccc1	5%	-9	0.5	18µM*	-2	-7%	1.9%
COC(=O)c1cccc(Nc2nc(-c3cccnc3)nc3ccccc23)c1	29%[15.4 µM]	0	1.6	-7%	-8	-6%	·
Cc1cccc(C(=O)OCC(=O)Nc2ccc3c(c2)OCCO3)c1	1%	0	·	·	-3	2%	1.4%
Cc1nc(NCCc2ccccc2)sc1C(=O)O	7%[15.4 µM]	-10	6.8	3%	3	-6%	·
Cc1c(C)c2ccc(OC(C)C(=O)NCCCN3CCOCC3)c(C)c2oc1=O (stereo not given)	-21%	-10	0.8	7%	2	-4%	4.0%
O=C(CN1CCN(Cc2ccccc2)CC1)Nc1ccc(Cl)cn1	-21%	-19	3.8	7%	14	4%	-1.1%
CCOc1cc(-c2conc2N)cc(OCC)c1OCC	-17%	6	2.5	14%	0	-4%	0.2%
COc1cc(C(=O)Nc2sc3c(c2C#N)CCN(C(C)=O)C3)cc(OC)c1OC	10µM*	4	9.9	13%	?	0%	-4.2%
O=C(CSc1nc2ccccc2n1CC(=O)N1CCCC1)NCc1ccc2c(c1)OCO2	2%	7	-0.4	-6%	-1	-11%	-0.2%
O=S(NC1CCCCC1)C12CC3CC(CC(C3)C1)C2 (stereo not given)	-23%	-10	2.1	-18%	-9	3%	-0.3%
CN(CC(=O)Nc1ccc(N2CCOCC2)cc1)CC(=O)Nc1ccc(N2CCOCC2)cc1	30%	6	3.4	-7%	-3	0%	0.0%
O=C(Nc1ccncc1)c1ccc2ncsc2c1	-14%[15.4 µM]	1	·	·	-2	4%	-3.5%
COc1ccc(NS(=O)(=O)c2ccc3c(c2)CCN3C(=O)CCC(=O)O)cc1OC	7%	-8	-27	2%	15	12%	-1.6%
Cc1ccc(S(=O)(=O)Nc2nc(CN3CCOCC3)nc3sc(C(=O)O)c(C)c23)cc1	?	-2	·	·	·	·	4.5%
O=C1c2cccnc2C(=O)N1Cc1ccc(S(=O)(=O)N2CCN(c3ccc(Cl)cc3)CC2)cc1	27%	19	2.9	17%	8	14%	0.2%
C=CC[C@@H](CC(=O)N(CCO)Cc1ccccc1)C(=O)N[C@H](COC(=O)[C@@H](CC=C)CC(=O)OC(C)(C)C)Cc1c[nH]c2ccccc12	-11%	-2	·	·	·	-32%	1.4%
Nc1nonc1-n1nnc(C(=O)N/N=C/c2ccccc2)c1CSc1ccc(Cl)cc1	-21%	13	3.1	-11%	-3	-35%	0.3%
Cc1cccc(C(=O)NCN2CCN(c3ccccc3C#N)CC2)c1	·	-25	-0.3&-18	21%&19%	·	2%	4.6%
O=C1CCSc2ccc(Cl)cc2N1Cc1cccc(Cl)c1	5%	-14	?	?	28	-4%	0.4%
CC[C@]12c3[nH]c4cc(CCC(=O)N(C)C)ccc4c3CCN1C(=O)[C@@H](CC(=O)NCCCOC)C[C@@H]2C(=O)N1CCN(C(=O)c2ccco2)CC1	·	-2	·	·	·	7%	-0.8%
O=C(NCCc1ccc(Cl)cc1)C1CCC(=O)N1Cc1ccc(F)cc1 (stereo not given)	-16%	-6	-6.8	15%	-1	5%	-1.4%
CCOC(=O)c1sc(C)c2c(=O)n(Cc3ccc(Cl)cc3)cnc12	-2%	1	1.5	15%	-5	1%	·
C#CCOc1nc(C)cc(C)c1S(=O)(=O)c1ccccc1C	?	-1	-3.1	-10%	-12	-11%	0.1%
CS(=O)(=O)N1CCN(C(=O)c2cc(-c3ccncc3)nc3ccc(Cl)cc23)CC1	21%	14	-1.4	-1%	13	-9%	-5.0%

Six records picked at random from those above:
SMILES	gsp ag	D2 PAM	Menin-MLL FL inh	Sfp inh	TRPV1 PAM	gsp antagonist	ClpP mod
O=C(NCCc1ccc(Cl)cc1)C1CCC(=O)N1Cc1ccc(F)cc1 (stereo not given)	-16%	-6	-6.8	15%	-1	5%	-1.4%
O=C(Nc1ccncc1)c1ccc2ncsc2c1	-14%[15.4 µM]	1	·	·	-2	4%	-3.5%
CC[C@]12c3[nH]c4cc(CCC(=O)N(C)C)ccc4c3CCN1C(=O)[C@@H](CC(=O)NCCCOC)C[C@@H]2C(=O)N1CCN(C(=O)c2ccco2)CC1	·	-2	·	·	·	7%	-0.8%
CCOC(=O)c1sc(C)c2c(=O)n(Cc3ccc(Cl)cc3)cnc12	-2%	1	1.5	15%	-5	1%	·
Cc1ccc(S(=O)(=O)Nc2nc(CN3CCOCC3)nc3sc(C(=O)O)c(C)c23)cc1	?	-2	·	·	·	·	4.5%
O=C1c2cccnc2C(=O)N1Cc1ccc(S(=O)(=O)N2CCN(c3ccc(Cl)cc3)CC2)cc1	27%	19	2.9	17%	8	14%	0.2%

(further entries)
SMILES	gsp ag	D2 PAM	Menin-MLL FL inh	Sfp inh	TRPV1 PAM	gsp antagonist	ClpP mod
Cc1ccc(-n2c(-c3c(-c4ccccc4)noc3C)n[nH]c2=S)cc1	-28%	-8	-6.1	-6%	20	-4%	-0.4%
O=C(Nc1ccccc1F)c1ccc(CN2CCN(c3ccccc3)CC2)cc1	22%	10	1.8	20%	3	-2%	-1.4%
O=C(COC(=O)c1cc(=O)[nH]c(=O)[nH]1)NCc1ccccc1	-2%	19	4.1	12%	-3	1%	-0.9%
c1ccc(-c2ccc(-c3ccccn3)s2)nc1	22%	0	3.0	6%	1	-3%	·
COc1ccc(CCC(N)=O)cc1OC	21%	-21	2.7	-10%	0	13%	-0.7%
c1cc(-c2nn[nH]n2)ccc1CN1CCCCC1	16%	3	0.6	17%	-3	7%	-0.3%
CCOC(=O)c1ccc(NC(=S)Nc2ccc3[nH]c(=O)[nH]c3c2)cc1	17%[15.4 µM]	-3	-0.1	40µM*	-7	1%	·
COc1cc(COc2ccc3c(C)c(CCC(=O)O)c(=O)oc3c2)cc(OC)c1OC	-17%[15.4 µM]	-5	-7.3	5%	?	-7%	0.2%
Cc1cc(C(=O)CC#N)c(C)n1-c1c(C)n(C)n(-c2ccccc2)c1=O	16%[15.4 µM]	-4	4.3	6%	-5	7%	·
CC1(C)C2CCC(C2)C1(C)NC(=O)CN1CCCC1 (stereo not given)	-1%[15.4 µM]	6	2.2	-18%	-11	8%	-0.5%
Cc1ccc(CN(C)C(=O)c2cc(S(=O)(=O)N3CCOCC3)ccc2F)o1	-9%	-15	·	·	·	5%	-15%
O=C1c2ccccc2C(Nc2cccnc2)N1Cc1ccccc1Cl (stereo not given)	7%	-3	0.9	7%	22	-12%	1.1%
Cc1nnc(N(C)C(=O)c2ccc3c(c2)OCO3)s1	?	-8	2.4	5%	5	3%	·
C=CCC[C@H](Cc1ccc(F)cc1)C(=O)OC[C@H](Cc1c[nH]c2ccccc12)NC(=O)[C@H](CC=C)CC(=O)NCCO	·	-4	·	·	·	5%	-6.4%
COc1cccc(C(c2c(NC(=O)c3ccccc3)sc(C)c2C)N2CCN(C)CC2)c1 (stereo not given)	4%	2	1.6	-13%	-9	4%	?
Cc1ccccc1NC(=O)Cc1nc(COC(=O)Cc2cccc(C(F)(F)F)c2)cs1	-7%	2	·	·	·	·	-0.8%
CC(=O)Oc1ccc(Cn2cnc3cc4ccccc4cc32)cc1	-25%	17	1.7	0%	-9	?	27%
COc1ccc(CCN(Cc2cccs2)S(=O)(=O)c2ccc(S(=O)(=O)N(C)C3CCCCC3)cc2)cc1OC	?	8	8.8	10%	8	5%	-0.8%
Cc1noc(C)c1S(=O)(=O)Nc1ccccc1Cl	3%	-2	-2.2	13%	-3	-6%	-0.5%
Cc1cc(C)c2c(c1)/C(=N/Nc1ccc(S(N)(=O)=O)cc1[N+](=O)[O-])CCC2	17%	-11	-0.2	6%	24	4%	-3.4%
NC(=O)C1=C[C@H](c2ccc3c(c2)OCO3)C[C@H](OCc2ccc(CO)cc2)O1	-1%	-8	0.0	7%	12	0%	-7.2%
O=C(Nc1ccc(Cl)cc1)OCc1cncs1	7%	-6	1.8	17%	-10	-8%	-1.6%
C(=Cc1nc2ccccc2o1)c1ccc2c(c1)OCO2	31%	-6	·	·	·	·	4.4%
O=C(NCCCc1ccccc1)c1ccc(CS(=O)Cc2ccccc2Cl)o1 (stereo not given)	14%	-9	-1.8	14%	-5	-25%	-1.6%
CC(=O)Nc1ccc(NC(=O)c2cc(=O)c3ccc(C)cc3o2)cc1	-11%[15.4 µM]	-9	-3.2	0%	8	7%	0.8%
O=C(N/N=C/c1ccc(OC(F)F)cc1)C1=COCCO1	-53%[inhibitor]	-8	-2.0	9%	-19	2%	·
CCOC(=O)c1cc(=O)c2c([N+](=O)[O-])ccc(OC)c2o1	-3%[15.4 µM]	-5	1.7	6%	5	3%	-2.5%
CCOC(=O)/C=C/[C@H]1CC2(CCO1)SCCCS2	0%	-4	·	·	-17	3%	2.5%
O=C(Cc1ccccc1)Nc1ccc(S(=O)(=O)N2CCOCC2)cc1	-10%	-1	-1.6	18%	-22	-3%	·
CCCc1cc(=O)[nH]c(SCC(=O)c2cc(C)n(CCOC)c2C)n1	-2%	-1	2.6	4%	2	-12%	-2.5%
COc1cc(/C=C/c2noc(-c3ccccc3O)n2)cc(OC)c1OC	10%	-9	-0.2	7%	1	5%	184%

High-throughput results from PubChem.
